# From PubChem BioAssay
# StopGo reporter: lowers the luciferase signal of an FMDV 2A StopGo reporter. Potency, µM (series often up to 57.9 µM), inactives show top-dose signal change, negative = less light. human cells with a luciferase reporter of 2A StopGo recoding; control for the full effect not named in the record. 1.2% of 410,000 active. AID 1159524; active = well fitted falling curve with a large enough effect; inconclusive = small, poorly fitted or top-dose-only effect; inactive = no such curve, though single readings can be large or run the other way; tested in HEK293T cells; note: nearly all actives have a fitted effect of over 45% in size; luciferase light after 4 h
# * = called active by the depositor; ? = inconclusive; [ ] = another dose, or the depositor's remark. % is set by controls: 0 for no effect and ±100 for the full control effect; potency is the fitted concentration of half-maximal effect.
SMILES,StopGo reporter
Cc1cnc(C)c(-c2cccc3c2OC(CNC(=O)c2cc(C)on2)C3)n1 (stereo not drawn),15.4%
Cc1ccc2nc(-c3ccccc3C)c(CN(CC3CCCO3)C(=O)c3cccs3)cc2c1 (stereo not drawn),-5.1%
COc1ccccc1CN1CCOc2ccc(CN3CCC(Oc4cccnc4)CC3)cc2C1,-10.5%
Cc1cc(C)cc(CN2CCOc3ccc(CN4CCC(O)(c5cccnc5)CC4)cc3C2)c1,-19.4%
Cc1cc(Cl)ccc1OCC(=O)N1CCOc2ccc(CN3C[C@@H](C)O[C@@H](C)C3)cc2C1,-19.6%
CN(C)CC(C)(O)c1ccc2c(c1)CN(Cc1cccn1-c1cccnc1)CCO2 (stereo not drawn),8.9%
COc1cc(=O)n2c(c1C(=O)NC(C)c1ccco1)CCN(C(=O)c1ccccc1SC)CC2 (stereo not drawn),23.1%
Cc1ccccc1C(=O)N1CCc2c(cnc(C)c2CNC(=O)CN2CCCCC2)C1,-20.1%
CN(C)Cc1ccc(-c2nc3cccc4c3n2CCNC4=O)cc1,-1.0%
O=C(NCC1CCC2(CCN(Cc3cccc4ncccc34)CC2)O1)c1ccccc1 (stereo not drawn),-0.4%
COc1ccc2c(c1)OC(C)CN(CCC(=O)NCC1OCCc3ccccc31)C2 (stereo not drawn),-5.2%
CN(CCO)C(=O)c1cn(C2CCN(Cc3ccc4ccccc4c3)CC2)nn1,-4.3%
CC(C)(CNC(=O)c1cnn(-c2ncc3c(n2)-c2ccccc2CC3)c1C1CC1)N1CCOCC1,-13.4%
CSc1nc(C(=O)NCc2nc(-c3cccc(NC(=O)c4ccc(C)s4)c3)oc2C)cs1,30.0%[activator]
CC(=O)N1CCC[C@H]1C(=O)NCC1Cc2cc(-c3cccc(OC(F)(F)F)c3)ccc2O1 (stereo partly drawn),-7.3%
NCC(CC(=O)O)c1ccc(Cl)s1 (stereo not drawn),8.2%
O=c1nc2ccccc2c2n1CC(CN1CCN(c3ccccc3)CC1)N2 (stereo not drawn),-6.5%
Cc1ccccc1C1(CC(=O)N2CCN(C)CC2)CC(=O)N(Cc2ccncc2)C1=O (stereo not drawn),-18.9%
O=C(C1CCOC1)N1CCOc2ccc(CN3CCC(Oc4cccnc4)CC3)cc2C1 (stereo not drawn),0.0%
COC(=O)[C@@H]1C[C@H](NC(=O)c2cc(C(F)(F)F)ccc2Cl)CN1Cc1cccc(O)c1,-11.4%

# Next part, starting with the last three of the part before.
SMILES,StopGo reporter
Cc1ccccc1C1(CC(=O)N2CCN(C)CC2)CC(=O)N(Cc2ccncc2)C1=O (stereo not drawn),-18.9%
O=C(C1CCOC1)N1CCOc2ccc(CN3CCC(Oc4cccnc4)CC3)cc2C1 (stereo not drawn),0.0%
COC(=O)[C@@H]1C[C@H](NC(=O)c2cc(C(F)(F)F)ccc2Cl)CN1Cc1cccc(O)c1,-11.4%
COc1cc(-c2cc(C)c3c(OC)ccc(OC)c3n2)cc2c1OCCN(C(=O)C(C)c1n[nH]c(=O)c3ccccc13)C2 (stereo not drawn),-7.9%
CCN(CC)CCNC(=O)c1cnn(-c2nccc(-c3cc4ccccc4o3)n2)c1C,-9.3%
C[C@@H]1CN(Cc2ccc3c(c2)CN(Cc2ccc(Oc4ncccn4)cc2)CCO3)C[C@H](C)O1,-3.9%
Cc1c(C(=O)N2CCCCC2)sc2ncnc(NCCN(C)C)c12,9.6%
COc1ccc(CCNC(=O)c2cnn(-c3nccc(-c4cccs4)n3)c2C)cc1OC,24.5%
C[C@H](N)CCCP(=O)(O)O,-11.3%
CC[C@@]1([C@@H]2O[C@@H]([C@H]3O[C@@](O)(CO)[C@H](C)C[C@@H]3C)C[C@@H]2C)CC[C@H]([C@]2(C)CC[C@]3(C[C@H](O)[C@@H](C)[C@@H]([C@@H](C)[C@@H](OC)[C@H](C)C(=O)O)O3)O2)O1 (stereo in doubt),-17.6%
COC(=O)c1c(OCc2ccccn2)cc(=O)n2c1CCN(Cc1ccc3c(c1)CCCN3C)CC2,-18.2%
COc1cccc(CN(C)C(=O)c2cnn(-c3ncc4c(n3)-c3ccccc3CCC4)c2C)c1,-28.9%
COc1ccc(OC)c(CN2CCCC(c3nc(C)ncc3-c3ccc(F)cc3)C2)c1 (stereo not drawn),-26.8%
CCC1CN(CCNC(=O)C(C)(C)O)Cc2cc(OC)ccc2O1 (stereo not drawn),-7.3%
Cc1ncc2c(c1CNS(=O)(=O)N(C)C)CCN(C(=O)c1[nH]c3ccc(Cl)cc3c1C)C2,-20.7%
CCOC(=O)C(C#N)(Cc1cc(OC)cc(OC)c1)Cc1cc(OC)cc(OC)c1,-27.3%
COCc1c(C(=O)NC2CCCC2)cnn1-c1nccc(-c2cc(C)sc2C)n1,34.9%[activator]
CS(=O)(=O)c1ccc(C(=O)OCC(=O)N2CCOCC2)cc1[N+](=O)[O-],?
FC(F)(F)c1cccc(-c2cn[nH]c2C2CCCN(Cc3cccn3-c3ccccn3)C2)c1 (stereo not drawn),-11.1%
OC(c1ccc2c(c1)CN(Cc1ccc3nsnc3c1)CCO2)C1CCCCC1 (stereo not drawn),-9.5%
Cn1c(=O)c2[nH]c(CCCC(=O)O)nc2n(Cc2ccccc2)c1=S,-6.3%
CC(=O)Nc1ccccc1Nc1nc(NCCO)nc(N2CCCC2)n1,-0.2%
CCC1CN(CC(=O)NC(C)CO)Cc2cc(OC)ccc2O1 (stereo not drawn),4.2%
Cc1c(C(=O)NCCCN2CCCC2=O)cnn1-c1ncc2c(n1)-c1ccccc1CC2,29.2%
Cc1ncc2c(c1CNS(=O)(=O)N(C)C)CCN(C(=O)c1ccc(F)cc1Cl)C2,8.9%
Cc1nc2cc(NC(=O)[C@@H]3C[C@@H](Sc4ccccn4)CN3C3CCCCCC3)ccc2s1,12.1%
O=C(c1ccnc(-n2cnnn2)c1)N1CCOc2ccc(C(O)CCc3ccccc3)cc2C1 (stereo not drawn),14.9%
C[C@@H]1CN(Cc2ccc3c(c2)CN(Cc2cn[nH]c2-c2ccccc2)CCO3)C[C@H](C)O1,-7.9%
CO[C@H]1[C@H](NC(=O)c2ccco2)c2ccccc2C12CCN(Cc1cc(Cl)ccc1O)CC2,-20.6%
COc1cccc(-c2cc3c(c(OC)c2)OCCN(Cc2cccn2-c2ccccn2)C3)c1,1.3%
CC(C)NC(=O)[C@@H]1C[C@@H](Sc2ccccn2)CN1C1CCN(C)CC1,-6.1%
Cc1ccc(C(=O)NCCc2nnc3n2CCN(C(=O)c2ccnc(Cl)c2)CC3)cc1,1.3%
NCC(O)COc1cccc2ccccc12 (stereo not drawn),-6.3%
Cc1cccc(CNC(=O)c2cnn(-c3nccc(-c4cc(C)sc4C)n3)c2C)n1,-8.3%
CCCc1nc2cccnc2n1C1CCN(C(=O)CC2NC(=O)c3ccccc32)CC1 (stereo not drawn),-13.9%
Cc1c(C(=O)NCc2ccco2)cnn1-c1ncc2c(n1)-c1ccccc1CC2,47.7%[activator]
CC(C)(CNC(=O)c1cnn(-c2nccc(-c3ccccc3F)n2)c1C1CC1)N1CCOCC1,-2.3%
CCOc1ccccc1CN1CCCC(c2nc(C)ncc2-c2ccc(F)cc2)C1 (stereo not drawn),-10.0%
COc1cccc(-c2ccnc(-n3ncc(C(=O)NCC(C)(C)CN(C)C)c3C)n2)c1,-12.7%
Fc1ccc(N2CCN(Cc3ccc4c(c3)CN(Cc3cccn3-c3ncccn3)CCO4)CC2)cc1,-11.6%
Cc1cc(-c2ccnc(-n3ncc(C(=O)NCCc4cccnc4)c3C)n2)c(C)s1,-3.3%
CCOC(=O)C1=C(N)Oc2ccc(Br)cc2C1C(C#N)C(=O)OCC (stereo not drawn),-3.4%
COc1ccc(OC)c(-c2ccnc(-n3ncc(C(=O)NC(C)(C)CO)c3C3CC3)n2)c1,34.2%[activator]
CN(C)C(=O)[C@@H]1C[C@@H](Sc2nc3ccccc3[nH]2)CN1Cc1ccc(Cl)cc1,39.8%[activator]
COc1cc(OC)cc(C(=O)N2CCCC(n3cc(C(=O)NCC(C)C)nn3)C2)c1 (stereo not drawn),10.8%
NC(=O)Nc1sc(-c2ccc(F)cc2)cc1C(N)=O,21.7%
COc1cc(=O)n2c(c1C(=O)N(C)Cc1nccs1)CCN(Cc1cccc(F)c1F)CC2,-1.4%
CSc1ncccc1C(=O)NCCN1Cc2ccccc2OC(c2ccccc2F)C1 (stereo not drawn),7.3%
COc1ccccc1N1CCN(c2nc(CNC(=O)C3CCOC(C)(C)C3)nc3ccccc23)CC1 (stereo not drawn),-23.7%
COC(=O)[C@@H]1CCCN1Cc1ccc2c(c1)CN(Cc1ccccc1C)CCO2,-10.1%
CC(=O)Nc1cc(C(=O)N2CCSCC2)cc2ncn(CCc3ccccn3)c12,-11.1%
CCCCC/C=C\C\C=C/C=C/C=C/[C@@H](SC[C@H](NC(=O)CC[C@H](N)C(=O)O)C(=O)NCC(=O)O)[C@@H](O)CCCC(=O)O,-7.5%[0.463 µM]
CNC(=O)[C@H](Cc1c[nH]c2ccccc12)NC(=O)[C@@H](CC(=O)NO)CC(C)C,-6.7%
CN(C)CCC1(c2ccc(Cl)cc2)Cc2ccccc2C(=O)O1 (stereo not drawn),-7.7%
COc1ccc(-c2ccnc(-n3ncc(C(=O)NCc4cccnc4)c3C3CC3)n2)cc1F,?
CO[C@H]1[C@H](NC(=O)c2cccs2)c2ccccc2C12CCN(Cc1cccn1-c1ccccn1)CC2,-15.2%
COc1ccccc1-c1nc(-c2ccc(C(=O)O)cc2)no1,41.0%[activator]
COc1ccccc1C(=O)N1CCOc2ccc(C(C)(O)CCn3cccn3)cc2C1 (stereo not drawn),-0.5%
O=C(c1cccnc1)C1CCCN(Cc2ccc3c(c2)CN(C(=O)c2cccc(Cl)c2)CCO3)C1 (stereo not drawn),-27.4%
COc1cc([C@@H]2c3cc4c(cc3C(O[C@@H]3O[C@@H]5COC(c6cccs6)O[C@H]5[C@H](O)[C@H]3O)C3COC(=O)[C@@H]32)OCO4)cc(OC)c1O (stereo partly drawn),-19.9%
Cc1ccc(CNc2ncnc3ccc(-c4ccoc4C)cc23)o1,?
Cc1ccc(C)c(S(=O)(=O)NCc2nc(N3CCCC3)c3cc(Cl)ccc3n2)c1,-1.2%
Cc1nonc1CN(C)C(=O)C1CC12CCN(C(=O)/C=C/c1cccc(Cl)c1)CC2 (stereo not drawn),-14.9%
# (cont.)
SMILES,StopGo reporter
Cc1cnc(-n2ncc(C(=O)NC(C)(C)CO)c2-c2cccs2)nc1-c1ccc(F)cc1,21.4%
COC(=O)c1cc(CNC(=O)c2cccc(F)c2)cc(NC(=O)c2ccccc2OC)c1,-9.7%
Cc1oc(-c2cccc(NC(=O)c3ccccn3)c2)nc1CNC(=O)C#Cc1ccccc1,15.8%
COc1cc2nc(N(C)C)c(CNC3CCOC(C)(C)C3)cc2c(OC)c1OC (stereo not drawn),-12.0%

# A different layout for part of the listing above.
SMILES	StopGo reporter
Cc1cnc(-n2ncc(C(=O)NC(C)(C)CO)c2-c2cccs2)nc1-c1ccc(F)cc1	21.4%
COC(=O)c1cc(CNC(=O)c2cccc(F)c2)cc(NC(=O)c2ccccc2OC)c1	-9.7%
COc1cc2nc(N(C)C)c(CNC3CCOC(C)(C)C3)cc2c(OC)c1OC (stereo not drawn)	-12.0%

# Some of these compounds in order of SMILES length, ascending.
SMILES,StopGo reporter
Cc1ccc(CNc2ncnc3ccc(-c4ccoc4C)cc23)o1,?
COc1cc2nc(N(C)C)c(CNC3CCOC(C)(C)C3)cc2c(OC)c1OC (stereo not drawn),-12.0%
Cc1ccc(C)c(S(=O)(=O)NCc2nc(N3CCCC3)c3cc(Cl)ccc3n2)c1,-1.2%
Cc1oc(-c2cccc(NC(=O)c3ccccn3)c2)nc1CNC(=O)C#Cc1ccccc1,15.8%
O=C(c1cccnc1)C1CCCN(Cc2ccc3c(c2)CN(C(=O)c2cccc(Cl)c2)CCO3)C1 (stereo not drawn),-27.4%
COc1cc([C@@H]2c3cc4c(cc3C(O[C@@H]3O[C@@H]5COC(c6cccs6)O[C@H]5[C@H](O)[C@H]3O)C3COC(=O)[C@@H]32)OCO4)cc(OC)c1O (stereo partly drawn),-19.9%

# The list is partial. The share of hits here may be higher or lower than overall.
